# From PubChem
# Vaccinia Venus: vaccinia inhibition (Venus reporter) | hit rate 0.46% among 330,000 | Potency, µM (doses to about 36.5 µM), for the others: top-dose activity change, negative = inhibition, actives largely listed as inhibitors | Vaccinia virus Venus reporter expression, fluorescence | AID 720580; active means well fitted inhibition curve with a large enough effect; inconclusive means small, poorly fitted or top-dose-only effect; inactive means no such curve, though single readings can be large or run the other way; tested in A549 cells; also: nearly all actives have a fitted effect of over 30% in size; inactives centre near -10
# VACV mCherry inh: inhibitors of vaccinia virus infection (mCherry reporter signal); Vaccinia virus mCherry reporter infection, fluorescence; about a quarter of the inactives have no number; Potency, µM (doses to about 36.5 µM), for inactives: at the top dose activity change, negative = inhibition, actives largely listed as inhibitors; hit rate 0.63% among 310,000; AID 720579; active = well fitted inhibition curve with a large enough effect; inconclusive = small, poorly fitted or top-dose-only effect; inactive = no such curve, though single readings can be large or run the other way; tested in A549 cells; also: nearly all actives have a fitted effect of over 35% in size; inactives centre near -10
# * hit, by the source's call; i = inactive; ? = inconclusive; . = not tested or not shown; [ ] = another dose, or the depositor's remark. % is scaled to controls: 0 for no effect and ±100 for the full control effect; potency is read from the fitted curve at half-maximal effect.
SMILES,Vaccinia Venus,VACV mCherry inh
CC(C(=O)Nc1ccccc1)N(C)CCOc1ccc(Br)cc1 (stereo not given),-19%,-6%
O=C(CSC1=NS(=O)(=O)c2cc(Cl)ccc2N1)NCCc1ccccc1,-6%,?
Cc1ccc(C(=O)NCc2n[nH]c(=S)n2-c2ccccc2)cc1[N+](=O)[O-],-18%,-5%
COC(=O)Nc1ccc(S(=O)(=O)Nc2cnc3ccccc3n2)cc1,-5%,-10%
COc1ccc2oc(C(=O)Nc3ccc(C)cn3)c(C)c2c1,10%,-13%
Nc1[nH]c(C(=O)c2ccccc2)c(-c2ccncc2)c1C(=O)NC1CC1,5%,i
CCn1c(CC(=O)Nc2ccccc2Cl)nnc1SCC(=O)NC1CCCC1,2%,-7%
COc1ccc(C(=O)/C=C/c2ccc(F)cc2)c(OC(=O)c2ccc([N+](=O)[O-])cc2)c1,-4%,-9%
C[C@H](NS(=O)(=O)OCC(Cl)(Cl)Cl)C1CC1c1ccccc1 (stereo not given in full),?,?
COc1ccc(C(=O)N(C)CCCC2CCCC2)cc1OC1CCN(C(C)=O)CC1,-6%,-23%
Cc1ccc(OCC(=O)O/N=C(\N)c2ccncc2)c(C)c1,-9%,i
CCCS(=O)(=O)NC(=O)C1(C)CCN(C(=O)c2ccccc2Br)C1 (stereo not given),-3%,-3%
O=C(Cn1nc(-c2ccccc2)ccc1=O)NCC1COCCO1 (stereo not given),-4%,-9%
OCCN(CCO)c1nc2ccccc2[nH]1,-22%,-23%
O=[N+]([O-])c1csc2ccccc12,6%,-11%
O=C(CN1CCC(n2nnc3cc(C(F)(F)F)ccc32)CC1)N1CCc2ccccc21,-11%,-1%
CN(Cc1ccccc1)C(=S)Nc1ccc(OC(F)F)cc1,-10%,-18%
COCCCNC(NC(=O)c1ccc(Cl)cc1)C(Cl)(Cl)Cl (stereo not given),-20%,.
O=S(=O)(c1ccc(N2CCCC2)cc1)C(F)(F)F,-22%,-1%
Cc1ccc(S(=O)(=O)N(C)c2ccc3c(c2)C(=O)c2ccccc2-3)cc1,0%,21%

# Individual results from the list.
# Entry for CN(Cc1ccccc1)C(=S)Nc1ccc(OC(F)F)cc1 in Vaccinia Venus: -10%
# Entry for O=C(CN1CCC(n2nnc3cc(C(F)(F)F)ccc32)CC1)N1CCc2ccccc21 in Vaccinia Venus: -11%
# Entry for O=[N+]([O-])c1csc2ccccc12 in Vaccinia Venus: 6%
# Entry for Cc1ccc(S(=O)(=O)N(C)c2ccc3c(c2)C(=O)c2ccccc2-3)cc1 in Vaccinia Venus: 0%

# Next entries follow.
SMILES,Vaccinia Venus,VACV mCherry inh
CC(O)c1ccc(Oc2cnccn2)cc1 (stereo not given),-11%,i
CCOc1ccc(NC(=O)CSc2nnnn2C2CCCC2)cc1,-5%,i
CC(=O)c1ccc(N(CC(=O)NCCc2ccccc2)C(=O)c2csnn2)cc1,-8%,i
Cc1cc(OCC(O)CN2C(C)CCCC2C)ccc1C(C)C (stereo not given),-21%,?
CCc1nn(CC(=O)NCCN2CCN(C)CC2)c(=O)c2cc3occc3n12,?,.
O=C(Cc1coc(-c2ccc(F)cc2)n1)NCc1ccccc1,-11%,.
COc1ccc(/C=C(/C#N)c2nc(-c3ccc(Br)cc3)cs2)cc1,-5%,-18%
CCCN(CCC)CC(O)Cn1cc(/C=C/C(=O)c2ccc(C)cc2)c2ccccc21 (stereo not given),?,?
COc1ccc2c(=O)c(-c3ccc4c(c3)OCO4)coc2c1,-14%,-25%
COc1ccccc1N1CCN(C(=O)c2oc3ccccc3c2C)CC1,6%,-6%
CCC1CCCCN1C(=O)CCc1nnc(C2CCCCC2)o1 (stereo not given),-17%,i
CCOc1ccc(CCNc2ncnc3onc(-c4ccc(F)cc4)c23)cc1OCC,-8%,-15%
CCCCN(C)CCCNC(=O)C1CCN(c2nc3ccc(CC)cc3s2)CC1,-11%,-4%
O=C(NCc1ccccc1Cl)c1cccc(NC2=NC3CS(=O)(=O)CC3S2)c1 (stereo not given),-18%,i
CN(C(=O)c1cccc(NC(=O)Cc2ccc(NC(=O)C3CCN(C(=O)C4CCC4)CC3)cc2)c1)C1CCC1,-21%,i
O=S(=O)(NCc1cccs1)NCc1ccccc1F,-8%,i
CC(C)(C)c1ccc(C(=O)Nc2ccc(NC(=O)c3ccc(Cl)c(Cl)c3)cc2)cc1,2%,-5%
CC(C)CN1CCN(Cc2cc3ccccc3[nH]2)CC1CCO (stereo not given),2%,?
Cc1ccc(C)c(CN2C(=O)c3ccccc3S(=O)(=O)c3ccc(C(=O)N4CCN(C)CC4)cc32)c1,-21%,-22%
CC(C(=O)OCC(=O)c1ccc(Br)cc1)N1C(=O)C2C3C=CC(C3)C2C1=O (stereo not given),-2%,i

# Another view of some results above:
> O=C(NCc1ccccc1Cl)c1cccc(NC2=NC3CS(=O)(=O)CC3S2)c1 (stereo not given)
  Vaccinia Venus: -18%; VACV mCherry inh: i

> CN(C(=O)c1cccc(NC(=O)Cc2ccc(NC(=O)C3CCN(C(=O)C4CCC4)CC3)cc2)c1)C1CCC1
  Vaccinia Venus: -21%; VACV mCherry inh: i

> O=S(=O)(NCc1cccs1)NCc1ccccc1F
  Vaccinia Venus: -8%; VACV mCherry inh: i

> CC(C)(C)c1ccc(C(=O)Nc2ccc(NC(=O)c3ccc(Cl)c(Cl)c3)cc2)cc1
  Vaccinia Venus: 2%; VACV mCherry inh: -5%

# Additional structures:
SMILES,Vaccinia Venus,VACV mCherry inh
COc1ccc(-c2[nH]c3ccccc3c2SCCNC(=O)c2ccccc2)cc1,-18%,-13%
Cc1cccc(NC(=O)Cn2c(SCC(=O)NCc3ccccc3)nc3ccccc32)c1C,-10%,-13%
Cc1ccc(C2=NCCn3nc4cc([N+](=O)[O-])ccc4c32)cc1,-14%,?
Cc1ccccc1Cn1c(=O)sc2ccccc2c1=O,-5%,i
CC(=O)C1=C(C)NC(C)=C(C(C)=O)C1c1ccccc1,-1%,i
COc1cc(-c2nc(C(=O)NC3CCCCC3)cc3c2[nH]c2ccccc23)cc(OC)c1OC,-14%,-18%
O=C(Oc1ccccc1C(=S)N1CCOCC1)c1ccccc1,-16%,?
COc1ccc(CN2CCC2(C)C(=O)Nc2cnc3ccccc3c2)c2ccccc12 (stereo not given),-9%,i
Cc1ccc(S(=O)(=O)N2CC3C(=O)C[C@@H](c4ccccc4)N(S(=O)(=O)c4cccc(Cl)c4)C3CC2c2ccccc2)cc1 (stereo not given in full),-18%,?
COc1ccc(CSc2nnc(Cc3sc(-c4ccccc4)nc3-c3ccccc3)o2)cc1,-13%,i
Cc1ccc(C(C(=O)NCc2ccco2)N(C(=O)CNC(=O)c2cccs2)c2ccc(C)cc2)cc1 (stereo not given),-5%,-16%
Cc1ccc(Cl)cc1N1CCN(c2ncnc3onc(C)c23)CC1,-28%,-4%
COC(=O)CC(=O)c1ccc2c(c1)OCO2,2%,i
Cc1ccc(N2C(=O)NC(=O)/C(=C\C=C\c3ccco3)C2=O)cc1C,28%,-2%
COc1ccc(C(=O)NC(=S)Nc2nnn(C)n2)cc1,3%,i
C/C(=N\Nc1cc(C(F)(F)F)ccc1Cl)c1ccccc1O,-7%,-6%
CC1(C(=O)NCc2ccccc2)Cc2c(-c3cccc(C(F)(F)F)c3)ccnc2O1 (stereo not given),-4%,?
Cc1ccc(-n2cc(CN3CCN(c4ccccn4)CC3)c(-c3ccc(F)cc3)n2)cc1,-9%,i
CC1CC(C)CN(S(=O)(=O)c2ccc3c(c2)n(C)c(=O)c(=O)n3C)C1 (stereo not given),-13%,i
CCC(=O)N1c2ccc(S(=O)(=O)N3CCCCCC3)cc2CC1C (stereo not given),4%,2%

# Single records (already shown). Order of screens: Vaccinia Venus	VACV mCherry inh
# COC(=O)CC(=O)c1ccc2c(c1)OCO2 as listed: 2%	i
# C/C(=N\Nc1cc(C(F)(F)F)ccc1Cl)c1ccccc1O as listed: -7%	-6%
# CC1(C(=O)NCc2ccccc2)Cc2c(-c3cccc(C(F)(F)F)c3)ccnc2O1 (stereo not given) as listed: -4%	?
# Cc1ccc(-n2cc(CN3CCN(c4ccccn4)CC3)c(-c3ccc(F)cc3)n2)cc1 as listed: -9%	i
# Cc1ccc(C(C(=O)NCc2ccco2)N(C(=O)CNC(=O)c2cccs2)c2ccc(C)cc2)cc1 (stereo not given) as listed: -5%	-16%

# (more compounds)
SMILES,Vaccinia Venus,VACV mCherry inh
Brc1ccc(/C=N/Nc2ccccn2)cc1,-21%,-19%
COc1ccccc1CNC(=O)CN1C(=O)c2cccc(N)c2C1=O,-11%,-19%
OC(c1ccccc1)(c1nc(-c2cc3ccccc3o2)cs1)C(F)(F)F (stereo not given),-1%,i
CN(C(=O)CCOc1ccccc1)c1c(N)n(Cc2ccccc2)c(=O)[nH]c1=O,-8%,-14%
CCOC(=O)c1cnc2c(C)cc(C)cc2c1NCCN1CCOCC1,1%,2%
CC(C)c1cc(-c2cc(C(=O)Nc3ccccc3)on2)nc(NC2CCCC2)n1,-23%,i
COC(=O)c1ccc(NC(=O)CN2C(=O)CNC2=O)cc1,3%,?
O=C(CN(C(=O)CCC(=O)Nc1ccccn1)C1CCCC1)NCc1ccccc1,-15%,i
CCC(=O)Oc1ccc2oc(=O)cc(C)c2c1,-11%,-24%
O=c1c2cc3c(=O)n(-c4ccccc4O)c(=O)c3cc2c(=O)n1-c1ccccc1O,-13%,?
COC(=O)C1=CN(C2CC2)C=C(C(=O)OC)C1c1ccc(C(F)(F)F)cc1,4%,-13%
O=C(O)C1CCC(c2ccc(-c3ccccc3)cc2)CC1 (stereo not given),-8%,5%
Cc1cc(C)c(C)c(S(=O)(=O)N2CCN(C(=O)c3ccco3)CC2)c1C,-18%,-10%
CCCC/C=C/C(NC(=O)c1ccc(C(=O)OC)cc1)c1ccccc1 (stereo not given),5%,i
CCN(CC)S(=O)(=O)c1ccc(NC(=O)C2CCCO2)cc1 (stereo not given),-2%,-7%
N#CC(NC(=O)OCc1ccccc1)c1ccccc1 (stereo not given),-6%,i
O=C(N/N=C/c1cccnc1)c1ccc(F)cc1,-9%,-10%
CCC(C)N(C(=O)CN1C(=O)NC2(CCc3ccccc32)C1=O)C1CCS(=O)(=O)C1 (stereo not given),-8%,i
CC1CN(C(=O)c2cc3c(s2)CCC3)CC(C)O1 (stereo not given),-9%,-6%
Cc1ccc(NC(=O)CSc2nc(N)cc(N)n2)cc1S(=O)(=O)N1CCOCC1,-16%,i
CC12CCC(=O)N1C(C(=O)Nc1nc3ccc(Cl)cc3s1)CS2 (stereo not given),-19%,i
Cc1ccc(C(=O)c2cc([N+](=O)[O-])ccc2N2CCOCC2)cc1,-22%,?
CC(=O)Nc1cccc(C(=O)/C=C/c2ccc(C)cc2)c1,?,?
Cc1cc(C)nc(NC(=O)c2cccc(Br)c2)n1,-25%,3%
CCOC(=O)Cc1csc(SCC(=O)NC(C)C23CC4CC(CC(C4)C2)C3)n1 (stereo not given),1%,-11%
CC(C)N(Cc1nccn1C)C(=O)c1ccc2oc(Cc3ccccc3)nc2c1,-7%,i
CCOC(=O)c1cc2n(c1/N=C/N(C)C)-c1ccccc1C2=O,6%,-18%
Cc1ccccc1N1CCN(CCCN2C(=O)C3CCCCN3C2=O)CC1 (stereo not given),-10%,i
COC(=O)c1ccc(NC(=O)CCN2CCN(CCC(=O)Nc3ccc(C(=O)OC)cc3)CC2)cc1,-7%,.
O=S(=O)(c1ccccc1)N1CCN2CCCC2C1 (stereo not given),-10%,-14%
CC(C)Cc1cc(C(=O)NCCc2ccccc2)no1,-10%,i
COC(=O)C1=C(C)NC(=O)NC1c1ccc(OCC(=O)N2CCCCC2)cc1 (stereo not given),-25%,.
CCc1cccc(C)c1NC(=O)CN1CCN(Cc2ccccc2Cl)S1(=O)=O,4%,-12%
O=C(c1ccco1)N1CCN(Cc2nnnn2CCc2ccccc2)CC1,-18%,-18%
CCCCn1c(N)c(N(CC(C)C)C(=O)Cc2ccc3c(c2)OCCO3)c(=O)[nH]c1=O,-7%,-27%
Cc1nc(-c2ccc(Cl)cc2)sc1CCNC(=O)C(=O)Nc1ccc2c(c1)OCO2,?,?
Cc1cccc(C)c1C(O)c1ncc(-c2ccccc2F)[nH]1 (stereo not given),5%,10%
CC(=O)Nc1ccc(-c2ccnc3c2CC(C)(C(=O)NC(C)C)O3)cc1 (stereo not given),5%,-3%
COc1cccc(-c2cn3c(n2)sc2cc(C(=O)NCCc4ccccc4)ccc23)c1,-15%,-12%
CC(C)(C)OC(=O)NCCCC(CCCNC(=O)OC(C)(C)C)C(=O)O,-7%,-12%
Nc1nonc1N/N=C\c1ccccc1,-17%,-25%
Cc1cn2c(=O)cc(COc3cccc(NC(=O)c4ccc(C(C)(C)C)cc4)c3)nc2s1,-9%[7.34 µM],i[7.34 µM]
COc1ccc(C(=O)NNC(=O)CSc2nnc3ccccn23)cc1OC,-7%,-2%
O=C(CSc1nc(Cc2ccccc2)nc2ccccc12)Nc1nc2c(s1)CCCC2,-12%,-1%
COc1ccc(-c2nnn(CC(=O)N(CCN3CCOCC3)C(C(=O)NC3CCCCC3)c3ccco3)n2)cc1 (stereo not given),-29%,i
CS(=O)(=O)c1ccccc1C(=O)Nc1ccccc1Cc1ccccc1,-24%,-12%
COC(=O)c1c(C)[nH]c(C(=O)COC(=O)Cn2cc(C(F)(F)F)ccc2=O)c1C,-13%,-9%
CN1OC[C@@H]2CN[C@H](c3cccc(-c4ccccc4)c3)C[C@@H]21,-8%,-16%
CCCCN(c1ccc(C(=O)OC)cc1)S(=O)(=O)c1ccccc1,-1%,-5%

# Filtered by structure, the compounds so far with a COOH group.
SMILES,Vaccinia Venus,VACV mCherry inh
O=C(O)C1CCC(c2ccc(-c3ccccc3)cc2)CC1 (stereo not given),-8%,5%
CC(C)(C)OC(=O)NCCCC(CCCNC(=O)OC(C)(C)C)C(=O)O,-7%,-12%
